Six1-Eya2 inh = qHTS Assay for Inhibitors of the Six1/Eya2 Interaction | actives 0.56% (n = 360,000) | AID 651725, 2012 | activity change, % (concentration not given with the values) | AlphaScreen GST-Six1/His-Eya2 binding, biochemical; active compounds read low; control for the full effect not named in the record; in the data active = activity change below about -65%; inconclusive = about -30% to -65%; inactive = above about -30%; also: % is scaled to controls: 0 for no effect and ±100 for the full control effect
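Six1/Eya2 binding was read as AlphaScreen signal after compounds were pinned into GST-Six1 plus His-tagged Eya2 (5X stock 250/500 nM) in pH 8.0 Tris/NaCl/TCEP buffer, beads added, then incubated 1 h, 37 C, dark.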
PINK1 modulator = A Quantitative High throughput Screen to Identify Chemical Modulators of PINK1 Expression; PINK1 immunofluorescence, high-content cytometry, 24 h; Potency, µM (series often up to 76.6 µM), without a hit: top-dose activation (PINK1 increase), hits mostly activators; actives 0.2% (n = 410,000); active = well fitted activation curve with a large enough effect; inconclusive = small, poorly fitted or top-dose-only effect; inactive = flat fitted curve, though single readings scatter; cell line not stated here;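 also: potency is read from the fitted curve at half-maximal effect; % of control where 0% means no effect; nearly all actives have a fitted effect of over 65% in size; a mitochondrial uncoupler was the plate control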
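Fluorescence from anti-PINK1 antibody, together with nuclear and cell stains, was scanned on a laser-scanning cytometer. Before staining, stable-line cells were incubated 24 hours with compounds at 5 concentrations; primary antibody 12 h at 10 degrees C.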
D2 ag = Beta-Arrestin HTS for Positive Allosteric Modulators of the Human D2 Dopamine Receptor: Agonists. DiscoveRx PathHunter D2 beta-arrestin, luminescence, 90 min; 100% = 57 uM dopamine signal. activation, % (test concentration not listed). actives 0.084% (n = 360,000); in the data active = activation above about 40%; inconclusive = about 15% to 40%; inactive = below about 15%; also: compound concentration not given in the record; the text of the record calls up to 30% inactive
Target sequence (P14416 whole entry, looked up): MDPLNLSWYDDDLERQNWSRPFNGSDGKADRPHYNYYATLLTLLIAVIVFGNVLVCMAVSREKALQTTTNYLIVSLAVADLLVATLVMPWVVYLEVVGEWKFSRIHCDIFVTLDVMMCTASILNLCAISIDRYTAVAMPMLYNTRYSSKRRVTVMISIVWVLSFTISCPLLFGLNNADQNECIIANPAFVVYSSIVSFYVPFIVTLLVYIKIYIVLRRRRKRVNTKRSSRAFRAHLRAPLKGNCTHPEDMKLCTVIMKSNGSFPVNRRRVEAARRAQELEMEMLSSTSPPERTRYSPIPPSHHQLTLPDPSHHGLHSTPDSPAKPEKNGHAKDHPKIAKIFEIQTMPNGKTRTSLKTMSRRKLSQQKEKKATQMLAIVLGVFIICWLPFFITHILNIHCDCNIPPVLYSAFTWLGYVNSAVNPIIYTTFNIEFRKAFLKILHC
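DiscoveRx PathHunter D2 beta-arrestin cells (2,100/well) attached overnight, then compound-stimulated 90 min at 37 C in HBSS/10 mM HEPES/0.1% Tween-20 buffer; beta-galactosidase complementation read by luminescence after 1 h at ambient temperature. Dopamine 57 uM final (EC100) as control.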
CtBP-E1A inh = qHTS Assay for Inhibitors of the CtBP/E1A Interaction; AlphaScreen GST-E1A/His-CtBP binding, 1536-well; active compounds read low; control for the full effect not named in the record; activity change, % (concentration not given with the values); actives 0.49% (n = 340,000); in the data active means activity change below about -65%; inconclusive means about -30% to -65%; inactive means above about -30%; also: % is scaled to controls: 0 for no effect and ±100 for the full control effect
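Steps: dispense buffer (Tris pH 8.0, NaCl 300 mM, TCEP 1 mM, BSA, Tween 20); add 5X protein mix (GST-E1A, His-CtBP, 125 nM each); pin 23 nL compound; 2 h at 37 °C, dark; add 5X beads (50 ug/mL); 1 h; read.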
TRPML1 inh = qHTS for Inhibitors of the Human Mucolipin Transient Receptor Potential 1 (TRPML1) | TRPML1-inducible cells, Ca2+ dye fluorescence, FDSS; active compounds read low; inhibition of EC80 agonist-evoked calcium signal | activity change, negative = inhibition, % (no concentration beside the values) | actives 0.02% (n = 390,000) | AID 624415, 2012; in the data active means activity change below about -50%; inconclusive means about -30% to -50%; inactive means above about -30%;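 also: stimulus is agonist 54-4 at its EC80 concentration; % is scaled to controls: 0 for no effect and ±100 for the full control effect; compound concentration not given in the record; the text of the record puts the active cut at -80%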
Target sequence (Q9GZU1 whole entry, looked up): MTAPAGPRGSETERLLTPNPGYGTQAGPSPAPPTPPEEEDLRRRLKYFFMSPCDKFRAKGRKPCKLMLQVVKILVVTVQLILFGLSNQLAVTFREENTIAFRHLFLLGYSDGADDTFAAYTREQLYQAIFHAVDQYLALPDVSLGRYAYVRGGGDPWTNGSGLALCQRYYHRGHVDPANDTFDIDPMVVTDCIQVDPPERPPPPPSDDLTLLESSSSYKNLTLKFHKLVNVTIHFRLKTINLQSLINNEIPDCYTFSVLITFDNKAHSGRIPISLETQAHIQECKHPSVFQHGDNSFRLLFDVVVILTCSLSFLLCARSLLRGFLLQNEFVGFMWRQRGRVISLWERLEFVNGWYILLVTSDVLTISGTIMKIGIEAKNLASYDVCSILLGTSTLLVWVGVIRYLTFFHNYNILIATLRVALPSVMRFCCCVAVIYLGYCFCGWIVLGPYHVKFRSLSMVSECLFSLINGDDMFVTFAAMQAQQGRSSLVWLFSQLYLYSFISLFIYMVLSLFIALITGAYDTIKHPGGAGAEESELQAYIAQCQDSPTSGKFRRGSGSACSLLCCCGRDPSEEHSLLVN
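Tet-induced TRPML1-DL cells loaded with Ca8 no-wash calcium dye were read kinetically on FDSS. Compound addition was followed by EC80 agonist 54-4 (4 uM final); inhibition was read over 110 s.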
TRPML1 agonist = qHTS for Agonists of the Human Mucolipin Transient Receptor Potential 1 (TRPML1). TRPML1-expressing cells, Ca2+ dye fluorescence, FDSS; host cell line not named in the record; reference of the full effect not given here. activation, % (test concentration not listed). actives 0.12% (n = 410,000); in the data active = activation above about 50%; inconclusive = about 30% to 50%; inactive = below about 30%; also: 0% is about no effect; the text of the record puts the active cut at 80%
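Agonist activity was taken from a 110 s kinetic Ca2+ dye read on the FDSS after pinning compounds onto TRPML1-DL cells. The cells were seeded at 1,500/well with Tet inducer, incubated about 16 h, then dye-loaded at room temperature.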
* marks the source's active call; other numbers are inactive results; ? = inconclusive; / = no result given; [ ] = remark or other dose.

SMILES	Six1-Eya2 inh	PINK1 modulator	D2 ag	CtBP-E1A inh	TRPML1 inh	TRPML1 agonist
CCOc1ccc(-c2cc(CCCC(=O)Nc3cc(OC)ccc3OC)no2)cc1	-2.6	1.9%[38.3 µM]	5.7	-4.5	-4.3	0.2
O=C(NCCc1nc(-c2ccccc2Cl)no1)C1CCCCC1	38.1	0.8%	0.7	33.8	-1.5	1.2
O=C(CCC(=O)N1Cc2ccccc2Oc2ncccc21)NCc1ccccc1Cl	/	0.9%	/	/	-2.6	0.3
O=C(c1cccc(Cl)c1)N1CCN(C(=O)c2ccco2)CC1	0.5	-2.9%	-2.4	3.5	-18.4	-0.7
Cc1onc(-c2c(Cl)cccc2Cl)c1COC(=O)c1ccc(Cl)cc1[N+](=O)[O-]	51.2	1.3%	-3.2	?	37.0	1.5
CCc1ccc(OCC(=O)Nc2ccc(Cl)c(-c3nc4ncccc4o3)c2)cc1	/	3.2%	/	/	22.3	1.1
C=CCN(CC=C)C(=O)C1c2ccccc2Oc2ccccc21	-1.2	1.6%	-3.4	3.0	-1.9	0.5
COc1ccccc1N(CC(=O)NC1CCCC1)C(=O)CCCC(=O)Nc1ccccn1	9.0	-0.9%	-1.7	0.4	9.0	-0.2
Cc1cc(C)n(-c2nc(C(=O)O)cs2)n1	-2.5	-0.1%	-1.3	-0.5	-4.4	0.4
O=C1c2ccccc2C(=O)c2c1ncn2-c1ccccc1	-12.4	-1.1%	2.6	0.0	-13.6	1.8
Cc1noc(NS(=O)(=O)c2ccc(NC(=O)C(F)(F)F)cc2)c1C	-3.0	1.5%	-2.5	4.2	-25.1	0.1
CC(C)n1cc(CN2CCC(C(=O)Nc3cccc(-c4cccc(Cl)c4)c3)CC2)cn1	-6.2	0.2%	-9.7	-8.5	7.7	0.1

A different layout for some results above:
Below each compound: Six1-Eya2 inh, PINK1 modulator, D2 ag, CtBP-E1A inh, TRPML1 inh, TRPML1 agonist
> C=CCN(CC=C)C(=O)C1c2ccccc2Oc2ccccc21
 : -1.2, 1.6%, -3.4, 3.0, -1.9, 0.5
> COc1ccccc1N(CC(=O)NC1CCCC1)C(=O)CCCC(=O)Nc1ccccn1
 : 9.0, -0.9%, -1.7, 0.4, 9.0, -0.2

Carrying on:
SMILES	Six1-Eya2 inh	PINK1 modulator	D2 ag	CtBP-E1A inh	TRPML1 inh	TRPML1 agonist
COC(=O)c1ccccc1NC(=O)Nc1c(C)n(C)n(-c2ccccc2)c1=O	16.9	-0.5%	-0.7	4.5	-4.3	-0.6
O=S(=O)(c1ccc2nc(Nc3ccc(Br)cc3F)ccc2c1)N1CCCCC1	/	9.0%	/	/	10.7	1.3
CCCCn1c(N)c(N(CCC(C)C)C(=O)CSc2nnc(C)s2)c(=O)[nH]c1=O	0.5	-1.5%	-2.4	9.0	4.4	0.5
COC(=O)Cn1c(O)c(N=NC(=O)CNC(=O)c2ccncc2)c2ccccc21	14.2	-1.6%	-4.1	0.0	-0.7	-0.2
Cc1ccc(NC(=O)COC(=O)C(NS(=O)(=O)c2ccc(Cl)cc2)C(C)O)cc1 (configuration not stated)	10.1	0.5%	-1.6	4.5	-1.6	-0.3
O=C(CCc1nc2ccccc2[nH]1)Nc1ccc2c(c1)OCO2	-9.4	3.5%	?	?	75.7	0.0
O=C(Nc1ccc(O)cc1)/C(=C\c1cccs1)NC(=O)c1ccccc1	4.6	-1.7%	-3.1	3.1	-5.3	-0.1
CC1(C)NC(=O)N(CCCOc2ccc(Br)cc2Cl)C1=O	2.4	4.6%[38.3 µM]	-2.3	53.0	-9.7	-0.5
CCCOc1ccc(-c2c(C(=O)N/N=C/C3CC=CCC3)nnn2-c2nonc2N)cc1 (configuration not stated)	-0.1	7.9%	0.5	-2.4	1.8	0.6
Cc1cccn2c(=O)c3cc(C(=O)NC4CCCCC4)n(C)c3nc12	3.1	10.0%	-1.8	5.0	11.7	-1.0
COC(=O)c1cc(S(=O)(=O)NCc2ccccc2)c[nH]1	-0.4	-0.6%	-2.2	0.5	-0.8	-1.2
CN(Cc1ccccc1)C(=O)COC(=O)CCC(=O)c1ccc(F)cc1	4.7	2.1%	-1.1	2.7	-2.1	1.2
O=C(CN1C(=O)C2C3CC(C(Br)C3Br)C2C1=O)N1CCOCC1 (configuration not stated)	8.6	4.5%	-1.7	-3.0	18.1	0.0
C=CCN=c1scc(-c2ccc3c(c2)NC(=O)CO3)n1/N=C(\C)c1ccccn1	-6.7	-0.4%	-5.3	-7.7	38.8	1.6
O=C(Oc1ccc(C(=S)N2CCOCC2)cc1)c1cc([N+](=O)[O-])cc([N+](=O)[O-])c1	-1.5	0.8%	3.4	10.7	31.3	1.3
N#CCCN(Cc1cccnc1)C(=O)Nc1cccc(Cl)c1	7.6	0.8%	-1.1	4.6	8.4	1.3
CCCCCC(=O)N1CC2(CC(c3cccc(NC(=O)c4ccccc4)c3)=NO2)C[C@@H]1C(N)=O (some centres not stated)	-6.5	1.7%	-2.0	-12.2	25.8	0.4
CC(C(=O)Nc1ccc(S(N)(=O)=O)cc1)N1CCc2ccccc21 (configuration not stated)	-1.1	1.3%	1.6	-1.0	-8.9	0.9
COc1ccc(S(=O)(=O)NCc2ccc3c(c2)CCN3C(=O)c2ccccc2)cc1OC	/	-0.6%	/	/	13.6	0.9
Cc1ccsc1/C=C(\C#N)C(=O)NCc1cccnc1	-4.0	0.1%	-4.7	-1.1	-7.5	-0.5
COc1ccc(NC(=O)Cn2nc(C)c([N+](=O)[O-])c2C)cn1	-1.5	1.4%	-4.8	3.4	-0.7	-0.6
CCOC(=O)c1c(-c2ncc(C(F)(F)F)cc2Cl)noc1C	7.8	-1.5%	0.8	-6.2	4.9	2.0
COc1ccc(NC(=O)N2CCCc3ccccc32)cc1	0.4	-0.2%	-2.7	4.3	-5.4	0.8
CC(C)c1cc(=O)n2[nH]c(N)nc2n1	-13.8	0.7%	-4.1	-22.9	-9.8	0.7
O=C(NCC(c1ccco1)N1CCCC1)c1cc(S(=O)(=O)N2CCOCC2)ccc1Cl (configuration not stated)	11.6	5.0%	-2.8	/	30.7	-0.9
COc1ccc(C(=Cc2ccccc2)C(=O)O)cc1	-7.1	0.8%	-1.4	-2.6	0.0	-0.8
COC(=O)c1ccc(NC(=O)CSc2n[nH]c(-c3ccncc3)n2)cc1	-0.4	2.9%	1.3	0.4	36.9	-0.9
O=C(Nc1ccccc1)c1ccc(Br)o1	2.3	-0.2%	1.2	1.5	-15.9	-1.0
O=C(CCCNC(=O)c1ccc(Cl)cc1)Nc1ccccc1F	0.1	-1.6%	-0.8	0.8	45.5	2.6
COc1ccc2c(c1)C(=O)CC(O)(C(F)F)O2 (configuration not stated)	-6.0	-0.5%	-5.2	-1.0	0.7	-0.3
Cc1ccsc1C(=O)NNC(=O)c1ccccc1F	7.5	-6.1%	-2.1	-4.8	4.0	0.3
COc1ccccc1N1CCN(c2ncnc3c2cnn3C)CC1	/	2.8%	/	/	27.1	-0.6
Cc1cc2c(c(=O)n1Cc1cccnc1)C(c1cccs1)C(C#N)=C(N)O2 (configuration not stated)	-2.3	0.2%	-3.3	-0.6	-2.9	1.9
CCOC(=O)C1=CC[C@H]2c3c(c4ccccc4n3C)C(=O)C1N2S(=O)(=O)c1ccc(C)cc1	1.1	-0.8%	-5.6	0.7	31.9	1.4
CCc1ccc(NC(=O)C(=O)NNC(=O)c2cccs2)cc1	24.6	-0.6%	-4.9	-9.7	27.5	0.8
Cc1onc(C(=O)NCc2ccc(F)cc2)c1[N+](=O)[O-]	8.7	-0.3%	1.5	9.9	-9.0	-0.5
O=C(N/N=C/c1ccc2c(c1)OCO2)C(O)c1ccccc1 (configuration not stated)	-7.0	0.5%	-2.6	-7.3	14.4	-0.1
CCCC(=O)N1CCCC1(C)C(=O)Nc1ccc(-n2cncn2)cc1 (configuration not stated)	7.6	0.6%	2.8	6.8	/	-0.5
Cc1ccc(/C=C(\C#N)C(=O)Nc2cccc3ncccc23)o1	-6.6	1.8%	2.8	-4.2	-14.9	2.9
CCCCc1nc2cc(C(=O)N(C)C3CCOCC3)ccc2o1	3.3	-0.6%	-1.6	5.8	-7.2	-0.5
N=c1ccn(Cc2ccc(Cl)cc2Cl)cc1	-4.1	?	-1.6	2.3	-5.0	0.2
O=C(Nc1ccc(-c2ccc(N3CCCCC3)nn2)cc1)c1ccco1	-17.2	6.7%	1.0	0.0	34.2	-0.8
CCCn1c(=O)c2sccc2n2c(CCCC(=O)NC3CCC(C)CC3)nnc12 (configuration not stated)	/	1.9%	/	/	16.8	-0.6
CC1CC(C)C(=NNC(N)=O)C(C(O)CC2CCC(=O)NC2=O)C1 (configuration not stated)	1.0	-4.0%	-2.5	2.3	4.5	-0.5
O=C(COc1ccc(S(=O)(=O)N2CCCCC2)cc1)NC1CCCCC1	12.3	-3.1%	0.6	-4.5	-7.2	-0.2
CCn1c2ccccc2c2cc(NC(=O)COC(=O)c3cc(Cl)c(N)cc3OC)ccc21	1.2	1.7%	0.2	-0.9	24.9	1.0
CC(=O)N/N=C/c1ccccc1OCCOc1cccc(C)c1	-1.8	13.1%	-3.5	/	-1.3	0.6
S=C(Nc1ccccc1Cl)N(Cc1ccccc1)Cc1cccnc1	7.1	-0.1%	0.7	-3.2	24.0	3.3
NC(=O)c1ccccc1NC(=O)N1CCOCC1	20.3	0.3%	2.1	-8.5	4.8	0.4
CCC(C)c1ccc(NC(=O)Nc2cnccn2)cc1 (configuration not stated)	6.2	9.4%	-0.4	4.3	3.4	0.3
Cc1ccc(NS(=O)(=O)c2ccc3c(c2)C(C(C)C)C(=O)N3)cc1C (configuration not stated)	/	-1.6%	/	/	13.0	-0.9
COc1ccc(C2NC(=O)C(C#N)=C(S)N2c2ccccc2)cc1OC (configuration not stated)	-1.4	1.0%	-8.0	0.6	0.0	0.2
CCOCCc1nn2c(=O)cc(COC(=O)C(CC)c3ccccc3)nc2s1 (configuration not stated)	/	-1.2%	/	/	-14.4	2.5
Cc1ccc(C)c(S(=O)(=O)c2c(C)cc(C)[nH]c2=O)c1	6.5	1.1%	0.3	3.9	3.8	-0.3
Cc1ccnc(Sc2ccc([N+](=O)[O-])cc2[N+](=O)[O-])n1	-1.3	0.2%[38.3 µM]	4.2	0.3	-7.7	-0.6
CC(NC(=O)COC(=O)c1cc([N+](=O)[O-])ccc1N1CCOCC1)c1ccc(F)cc1 (configuration not stated)	-15.5	2.2%	0.8	7.3	2.5	-0.7
CCC(NC(=O)Nc1cc(OC)ccc1OC)c1c(-n2cccc2)sc2c1CCN(CC)C2 (configuration not stated)	/	2.5%	/	/	-13.1	0.6
Cc1ccccc1C(=O)N1CCN(c2ccc(NC(=O)c3ccccc3[N+](=O)[O-])cc2)CC1	3.1	8.4%	0.5	-9.5	11.4	0.0
CCc1nc2c(cnn2-c2ccc(Cl)cc2)c(=O)n1-c1ccc(OC)c(Cl)c1	/	-0.3%	/	/	47.2	0.2
